RGS16-Gao HTS: RGS16-Galphao interaction regulator (human) | O15492+P09471 | binding response (% of control), % at 10 µM | actives 0.38% (n = 220,000) | bead-based flow cytometry RGS16-Galphao binding, fluorescence; actives lie on both sides;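 active = below 25% or above 175%, edge rows of some plates excepted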;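 note: Galphao activated by GDP with aluminum fluoride before binding; 100% = wells without compound and 0% = beads without RGS; some results beyond the cut were filed as inactive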
Target sequence (O15492 whole entry, looked up): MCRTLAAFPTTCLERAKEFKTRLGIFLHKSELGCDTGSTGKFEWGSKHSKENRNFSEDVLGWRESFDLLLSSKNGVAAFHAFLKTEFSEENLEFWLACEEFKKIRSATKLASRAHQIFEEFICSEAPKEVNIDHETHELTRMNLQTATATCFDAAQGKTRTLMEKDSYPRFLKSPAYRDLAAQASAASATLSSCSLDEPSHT
Target sequence (P09471 whole entry, looked up): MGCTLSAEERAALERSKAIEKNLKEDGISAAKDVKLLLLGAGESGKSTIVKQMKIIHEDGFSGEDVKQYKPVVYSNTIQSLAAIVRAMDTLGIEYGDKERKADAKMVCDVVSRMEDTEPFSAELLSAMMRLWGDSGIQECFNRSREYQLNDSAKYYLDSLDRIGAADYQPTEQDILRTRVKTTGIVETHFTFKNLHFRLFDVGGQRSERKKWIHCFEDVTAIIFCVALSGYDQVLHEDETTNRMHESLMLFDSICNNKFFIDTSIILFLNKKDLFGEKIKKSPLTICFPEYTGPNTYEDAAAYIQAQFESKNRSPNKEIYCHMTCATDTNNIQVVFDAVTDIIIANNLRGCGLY
GALR2 agonist: activates the human galanin receptor 2. O43603. GALR2-expressing cells, agonist activation read-out. activation, %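 (tested at 5 µM)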. actives 0.48% (n = 140,000). AID 803;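 active = above mean plus 3 SD of all compounds, about 5% in these data, not always enough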;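 note: 0% = vehicle buffer wells and 100% = reference agonist at full effect; tested in CHO reporter cells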
Target sequence (O43603 whole entry, looked up): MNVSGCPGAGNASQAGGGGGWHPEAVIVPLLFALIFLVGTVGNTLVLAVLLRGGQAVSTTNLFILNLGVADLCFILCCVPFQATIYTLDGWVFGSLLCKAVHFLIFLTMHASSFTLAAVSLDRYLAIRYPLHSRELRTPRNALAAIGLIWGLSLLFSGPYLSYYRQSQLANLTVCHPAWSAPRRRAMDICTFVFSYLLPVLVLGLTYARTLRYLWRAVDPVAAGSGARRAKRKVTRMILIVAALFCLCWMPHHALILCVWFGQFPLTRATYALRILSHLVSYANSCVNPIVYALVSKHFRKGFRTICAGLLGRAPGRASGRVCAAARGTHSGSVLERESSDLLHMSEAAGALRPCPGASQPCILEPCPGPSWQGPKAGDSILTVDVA
INS promoter inh: TRM-6 insulin promoter activity inhibition | inhibition, % at 2 µM | AID 1273 | TRM-6 cells (human fetal islet line), insulin promoter-eGFP reporter, imaging; reporter expression induced with tamoxifen | actives 0.9% (n = 130,000);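 active = inhibition above the mean plus 3 SD, with well images judged a real hit on visual review, cut at about 60% in these data, passing the limit was not always enough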
HSV replic up: HSV replication enhancement; actives 0.005% (n = 220,000); maximum fold increase; HSV replication augmentation in cells, fold increase;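 active = peak rise of 1.5-fold or more in the series; tested in PC3 cells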;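 note: first round at 10 µM; read as green reporter fluorescence; hits show the peak of a series up to 25 µM; 1 = signal of infected wells without compound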
PKD1 kinase inh: blocks activity of human protein kinase D1. Q15139. PKD1 kinase fluorescence polarization assay. inhibition, %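 (about 10 µM by stock and volumes)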. actives 0.056% (n = 200,000). AID 797;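 active = inhibition of 50% or more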;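 note: controls were vehicle for no effect and a reference inhibitor for full effect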
INS promoter inh cell count: further read-out of INS promoter inh, marked with its call; normalized cell count, %; measured here: cell count, toxicity; reference of the scale not given here;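 cells exposed to compound for 48 h; stained nuclei by imaging scaled within each plate; lower means fewer cells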
HSV replic up primary fold: also measured in HSV replic up; calls as there; fold increase; compound at 10 µM; measured here: primary screen fold increase 10 uM; tested in PC3 cells;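 GFP signal in the first replicate; 1 = infected wells without compound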
* marks the source's active call; other numbers are inactive results; i = inactive; . = not tested or not shown.

item	Molecule	RGS16-Gao HTS	GALR2 agonist	INS promoter inh	INS promoter inh cell count	HSV replic up	HSV replic up primary fold	PKD1 kinase inh
1	CCc1ccc(NS(=O)(=O)c2cccs2)cc1	30	-3.9	-36	258	i	0.91	-18
2	COc1ccc(-c2cc(C(F)F)n3ncc(C(=O)N4CCCc5ccccc54)c3n2)cc1	101	.	-10	112	i	0.86	-9
3	CCCN=C(Nc1ccc(Cl)cc1)c1cccnc1	104	-1.5	-18	219	i	0.64	-6
4	CCNC(=S)N1CCC(c2nc3cc(C)c(C)cc3[nH]2)CC1	100	0.3	.	.	i	0.96	-11
5	Cc1cc(=O)[nH]c(SCC(=O)C23CC4CC(CC(C4)C2)C3)c1C#N	101	1.3	30	57	i	0.7	-6
6	O=C(NCc1cccnc1)c1cnc2n(c1=O)CCS2	107	-2.8	20	74	i	1	-5
7	Cc1cc(SC2CCOC2=O)nc2ccccc12 (stereo not given)	100	.	7	110	i	0.95	3
8	Cn1cnnc1SCC(=O)Nc1sc2c(c1C#N)CCCCC2	94	0.6	30	48	i	1.1	-10
9	CCOc1ccc(NC(=O)c2cccc(OC(=S)N3CCC(C)CC3)c2)cc1	97	-1.7	-8	119	i	0.88	-11
10	CCOC(=O)c1c(C)[nH]c(C(=O)CSc2ccccc2)c1C	100	0.7	-26	96	i	0.86	-15
11	CC(NC(=O)CN1CCN(c2ncccn2)CC1)c1ccc(F)cc1 (stereo not given)	100	-1.8	-39	176	i	0.91	-3
12	CCCn1c(SCC(=O)c2ccc(CC)cc2)n[nH]c1=O	96	-2.9	29	100	i	0.87	-11
13	CCCNC(=S)Nc1ccc(F)cc1F	106	.	.	.	i	1	.
14	O=C(c1cccc(F)c1)N1CCCN(C(=O)c2cccc(F)c2)CC1	101	-1.2	0	108	i	0.97	-14
15	Cc1cc(-c2cc(C(=O)NCc3ccccc3)on2)nc(S(C)(=O)=O)n1	113	.	.	.	i	0.86	.

(list continues)
item	Molecule	RGS16-Gao HTS	GALR2 agonist	INS promoter inh	INS promoter inh cell count	HSV replic up	HSV replic up primary fold	PKD1 kinase inh
16	Oc1cc(Cc2ccccc2)cnc1CN1CCOCC1	100	-0.7	.	.	i	0.93	-9
17	Cc1cc2c(o1)CC(C)(C)CC2=O	97	.	.	.	i	1.1	-1
18	CCc1cc[n+](-c2nc3ccccc3nc2[N-]S(=O)(=O)c2ccc(Br)s2)cc1	5	-1.2	8	50	i	1.7	4
19	O=C(CCN1C(=O)S/C(=C/c2ccc(Cl)cc2)C1=O)N1CCOCC1	104	-0.5	-69	54	i	0.92	-11
20	O=C(Nc1ccc(OC(F)(F)F)cc1)C1CCCN(S(=O)(=O)c2cccnc2)C1 (stereo not given)	82	-0.7	.	.	i	0.96	3
21	O=C(c1cnc2n(c1=O)CCS2)N1CCc2ccccc21	105	-0.8	43	45	i	0.97	6
22	CC(OC(=O)c1cc2sccc2n1C)C(=O)NC(C)(C)C (stereo not given)	113	.	.	.	i	0.94	0
23	Cc1ccc(-n2c(C)n[nH]c2=S)cc1C	107	-0.1	.	.	i	1	1
24	Nc1ccccc1Nc1cccc(C(F)(F)F)c1	93	.	.	.	i	0.72	-6
25	CC1CN(c2ccc(C(F)(F)F)cc2[N+](=O)[O-])CCN1S(C)(=O)=O (stereo not given)	107	0.4	-57	109	i	0.94	5
26	Cc1cc(C)n2nc(SCC(=O)N(Cc3ccccc3)C3CCS(=O)(=O)C3)nc2n1 (stereo not given)	91	.	47	73	i	0.65	-8
27	COc1ccc(C2C3C(C)=NN=C3CC(C)(O)C2C(C)=O)cc1 (stereo not given)	110	-1.3	13	94	i	1	2
28	O=C(Nc1ccc(Cl)cc1C(=O)N1CCCC1)c1cccc([N+](=O)[O-])c1	95	.	.	.	i	1.1	8
29	COc1ccc(C2C(C#N)=C(N)OC3=C2C(=O)CCC3)cc1Cn1cc([N+](=O)[O-])cn1 (stereo not given)	91	1.3	.	.	i	1.1	3
30	CCOC(=O)c1ccc(NC(=O)NS(=O)(=O)c2ccc(C)cc2)cc1	104	-2.7	0	93	i	0.94	-2

Compound profiles, from the list above:
Nc1ccccc1Nc1cccc(C(F)(F)F)c1 across the screens: RGS16-Gao HTS: 93; GALR2 agonist: .; INS promoter inh: .; INS promoter inh cell count: .; HSV replic up: i; HSV replic up primary fold: 0.72; PKD1 kinase inh: -6
O=C(CCN1C(=O)S/C(=C/c2ccc(Cl)cc2)C1=O)N1CCOCC1 across the screens: RGS16-Gao HTS: 104; GALR2 agonist: -0.5; INS promoter inh: -69; INS promoter inh cell count: 54; HSV replic up: i; HSV replic up primary fold: 0.92; PKD1 kinase inh: -11

Additional entries
item	Molecule	RGS16-Gao HTS	GALR2 agonist	INS promoter inh	INS promoter inh cell count	HSV replic up	HSV replic up primary fold	PKD1 kinase inh
31	Cc1nc2cc(NC(=O)NCc3ccc4c(c3)OCO4)ccc2o1	98	-0.1	-20	95	i	0.87	7
32	O=C(NCC1COCCO1)C1CCN(S(=O)(=O)c2ccccc2)CC1 (stereo not given)	102	-1.8	6	122	i	1	-21
33	CCOC(=O)Cn1cc(C(=O)C2CC2)c2ccccc21	69	-0.2	0	81	i	0.99	6
34	CNc1nc2c(c(=O)[nH]c(=O)n2C)n1CCOC	99	-4.2	-7	37	i	0.93	0
35	O=C(/C=C/c1ccccc1)Nc1nc(-c2ccncc2)cs1	132	.	0	88	i	0.87	-1
36	CC(C)c1nc2sc3c(SCC(=O)NCc4ccco4)ncnc3c2c2c1CCC2	87	0.3	44	148	i	0.83	-4
37	Cc1ccc(Cc2c(C)c(C#N)c3[nH]c4ccccc4n3c2=O)cc1	101	.	.	.	i	0.89	.
38	O=C(O)c1c(Cl)nc2ccccn12	97	.	.	.	i	0.95	-4
39	Cc1cc2c(cc(C(=O)NCc3cccnc3)n2Cc2ccc(Cl)cc2)o1	115	-2.2	.	.	i	1.2	8
40	CCOCCCNC(=O)CN(Cc1ccc(Cl)cc1)S(C)(=O)=O	103	-0.1	-189	96	i	0.82	-12
41	Cc1ccc(C)c(N=Cc2cc3c(cc2[N+](=O)[O-])OCO3)c1	98	.	-14	134	i	0.86	0
42	CCOC(=O)C(/C=N/c1cc(C)nn1-c1ccccc1)=C(\C)O	114	-1.5	.	.	i	1.1	-7
43	Nc1c(C(=O)NCc2cccnc2)sc(=S)n1-c1ccccc1	70	0.2	.	.	i	0.9	-12
44	CCCOC(=O)c1ccc(NC(=O)c2ccc(Br)o2)cc1	96	-1.2	-22	113	i	0.96	2
45	O=C(COc1nc2ccccc2nc1N1CCOCC1)NC1CCCCC1	111	-1.3	3	102	i	0.96	-3

Going on with the list:
item	Molecule	RGS16-Gao HTS	GALR2 agonist	INS promoter inh	INS promoter inh cell count	HSV replic up	HSV replic up primary fold	PKD1 kinase inh
46	CC(C)[C@H](NC(=O)c1ccc(Cl)c([N+](=O)[O-])c1)C(=O)NCc1ccc(F)cc1	94	-0.8	.	.	i	0.96	-7
47	Cc1ccc(NC(=O)c2cc(NC(=O)c3ccco3)ccc2N2CCCCC2)cc1	100	-0.6	-25	136	i	0.94	2
48	c1ccc(-c2nc(NCCCn3ccnc3)c3oc4ccccc4c3n2)cc1	100	-0.3	64	103	i	0.81	-2
49	NC(=O)c1ccc(NC(=O)CCNC(=O)c2ccco2)cc1	104	.	.	.	i	0.93	.
50	COc1ccccc1NC(=O)C12CCC(C)(C(=O)C1)C2(C)C (stereo not given)	97	.	.	.	i	0.91	-1
51	CCOC(=O)c1c(C)oc2ccc(OCC(=O)N(CC)CC)cc12	89	0.3	14	66	i	1	1
52	CCOC(=O)CN1CC23C=CC(O2)C(C(=O)Nc2ccc(F)c(C)c2)C3C1=O (stereo not given)	102	0.6	-11	111	i	0.99	-7
53	Clc1cc(Cl)cc(CSc2nnc(-c3sccc3-n3cccc3)o2)c1	33	-2.1	30	104	i	1.1	-21
54	CCCCc1nc(NCCNC(=O)c2ccco2)c(C#N)c2c1CSC(C)(C)C2	85	-0.4	-36	82	i	0.97	-5
55	CC/C(=C/c1sc2ccc(C)cc2[n+]1CCO)SC	101	.	.	.	i	1.2	-7
56	Cc1nc2c(c(=O)c3ccccc3n2C)c(=O)n1-c1ccccc1	104	.	.	.	i	0.88	.
57	CC1(C)CC(=O)C(C(=O)C2CCN(S(=O)(=O)c3ccccc3)CC2)C(=O)C1	102	.	.	.	i	0.95	-7
58	CCCCC1(C)OC(=O)C(=Cc2ccc(-c3ccc(Cl)c(C(=O)O)c3)o2)C(=O)O1 (stereo not given)	93	.	.	.	i	0.88	.
59	Cc1cccc(NC(=O)CSc2nnc(-c3ccccc3Br)o2)c1C	111	-0.9	.	.	i	0.89	-8
60	COCCCNC(=O)C1CCN(c2ccc(N3CCOCC3)nn2)CC1	102	.	.	.	i	1	.

Other compounds:
item	Molecule	RGS16-Gao HTS	GALR2 agonist	INS promoter inh	INS promoter inh cell count	HSV replic up	HSV replic up primary fold	PKD1 kinase inh
61	c1ccc(N/N=C2\CCCc3ccccc32)nc1	56	.	0	80	i	0.95	7
62	CN(C)CCCOC(=O)COc1ccc(C(C)(C)C)cc1	105	-0.5	24	131	i	0.99	-8
63	CN(C)CCN(Cc1cc2cc3c(cc2[nH]c1=O)OCO3)C(=S)NCc1ccco1	98	.	.	.	i	0.83	1
64	CC(C)C(NC(=O)c1ccc(C(C)(C)C)cc1)C(=O)Nc1cccc(S(N)(=O)=O)c1 (stereo not given)	101	.	33	122	i	0.83	-2
65	CC(O)/C=C/C1OC(=O)CC1Nc1ccc(C=O)cc1 (stereo not given)	95	.	.	.	i	1.2	7
66	O=C(Nc1ccc(Oc2nnc(-c3ccccc3)c3ccccc23)cc1)c1ccccc1	109	0.9	14	97	i	0.74	-4
67	CC(C)N(C(=O)CSc1nc2ccccc2c(=O)[nH]1)C(C)C	107	.	-29	93	i	0.95	-6
68	CC(C)(C)OC(=O)N1CCC(C(=O)N2CCC[C@H]2C(=O)O)CC1	100	-1.0	.	.	i	0.95	4
69	COc1ccc(CCNC(=O)Nc2cccc([N+](=O)[O-])c2)cc1OC	97	.	0	141	i	0.86	-2
70	FC(F)(F)c1nnc(-c2ccccc2)nc1N1CCCC1	97	.	.	.	i	0.92	5
71	O=C(NC(=S)NCCOCc1ccc(Cl)cc1)c1cccnc1	16*	-1.8	25	148	.	.	7
72	O=C(Cn1cnc2scc(-c3ccc(Cl)cc3)c2c1=O)N1CCOCC1	98	.	.	.	i	0.92	.
73	COc1ccc(CN(C)C(=S)Nc2ccc(OC(F)F)cc2)cc1	99	.	.	.	i	1	-4
74	CCCS(=O)(=O)N1CCCC(C(=O)NC2CCCC(C)C2C)C1 (stereo not given)	91	-2.6	-95	91	i	0.87	-7
75	CC1(C)C2CCC1(CS(=O)(=O)Nc1ccc(S(=O)(=O)N3CCCCC3)cc1)C(=O)C2 (stereo not given)	95	-1.4	.	.	i	0.87	2

(cont.)
item	Molecule	RGS16-Gao HTS	GALR2 agonist	INS promoter inh	INS promoter inh cell count	HSV replic up	HSV replic up primary fold	PKD1 kinase inh
76	O=C(N/N=C/C(Cl)=C/c1ccc([N+](=O)[O-])cc1)C(=O)Nc1ccc(C(=O)O)cc1	98	.	.	.	i	0.81	.
77	Cc1ccc(Cl)cc1NC(=O)CCn1cccc1	93	-1.5	-36	65	i	1	-3
78	O=C(Nc1ccc(N2CCOCC2)cc1)c1cc2c(s1)CCCCC2	103	.	.	.	i	0.75	1
79	CC(NC(=O)/C(C#N)=C/c1cccs1)c1ccccc1 (stereo not given)	98	.	.	.	i	0.94	-1
80	O=[N+]([O-])/C(C(=C(Cl)Cl)N1CCN(Cc2ccccc2)CC1)=C1\NCCN1Cc1ccc(Cl)nc1	104	.	.	.	i	0.88	0
81	COc1ccc(-c2cccc([C@H]3[C@@H]4C=CCC[C@@]4(C)C(=O)N3Cc3ccccc3)c2)cc1	95	.	.	.	i	0.79	.

High-throughput results as filed in PubChem BioAssay.
